Calb FLC – affects C. albicans growth with fluconazole; C. albicans CaCi-2 (fluconazole-resistant clinical isolate) + fluconazole, Alamar Blue growth, 48 h; growth inhibition, % (no concentration beside the values); actives 0.57% (n = 300,000);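 active = most replicates above 75%; inconclusive = exactly half above 75%; inactive = most below 75%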;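 note: all wells also contain fluconazole at 8 µg/ml as a sub-toxic cotreatment; 0% = median of DMSO wells and 100% = median of geldanamycin control wells; wells of about 8 µL received 7.5 nL stock; the first replicate is given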
MLL AF4-AF9 inh – MLL-AF4/AF9 protein interaction inhibition | actives 0.47% (n = 350,000) | AID 651704 | inhibition, % at 10 µM | P42568 | AlphaScreen, biotin-AF4 peptide binding to FLAG-AF9;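 active = every replicate reaching a set inhibition limit, whatever the replicate mean, cut at about 25% in these data; inconclusive = mean inhibition reaches that limit but some replicates miss it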;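 note: 0% = plate neutral control median and 100% = total signal loss; the record names both 10 and 1 µM as test concentration; the first replicate is given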
Target sequence (P42568 whole entry, looked up): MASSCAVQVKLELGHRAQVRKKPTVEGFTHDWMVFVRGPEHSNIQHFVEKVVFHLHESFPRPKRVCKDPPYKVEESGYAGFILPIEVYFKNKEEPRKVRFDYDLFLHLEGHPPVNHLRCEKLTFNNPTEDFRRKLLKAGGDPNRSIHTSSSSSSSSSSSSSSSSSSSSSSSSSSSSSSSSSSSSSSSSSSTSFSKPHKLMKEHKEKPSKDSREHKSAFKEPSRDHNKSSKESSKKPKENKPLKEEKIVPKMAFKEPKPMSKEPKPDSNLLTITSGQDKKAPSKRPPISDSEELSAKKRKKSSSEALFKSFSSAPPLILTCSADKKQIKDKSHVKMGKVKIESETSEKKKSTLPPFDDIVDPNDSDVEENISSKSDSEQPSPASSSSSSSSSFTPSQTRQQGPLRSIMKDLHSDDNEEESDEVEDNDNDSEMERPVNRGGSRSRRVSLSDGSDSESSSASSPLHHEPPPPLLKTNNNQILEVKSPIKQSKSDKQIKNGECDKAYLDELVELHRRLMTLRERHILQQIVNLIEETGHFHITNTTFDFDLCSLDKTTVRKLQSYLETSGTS
Beta apoptosis – blocks beta cell apoptosis; INS-1E cytokine-induced death, ATP luminescence, 48 h; percent of positive-control rescue, neutral wells zero; protection from apoptosis, % (concentration not given with the values); actives 0.8% (n = 300,000); AID 435005;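 active = all replicates at 75% or more, or half of them and the mean; inconclusive = half reach 75% but not the mean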;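 note: 0% = cytokine-treated negative control wells and 100% = positive control rescue; higher means more ATP so stronger rescue from cytokine killing; wells of about 40 µL received 100 nL stock; the first replicate is given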
Vif A3G – inhibitors of Vif binding to APOBEC3G peptide, primary screen, biochemical, TR-FRET, GST-Vif 1-94, biotin-A3G peptide, dose response retest (AID 1117319) | one-dose inhibition, %; IC50 in µM for titrated hits | TR-FRET GST-Vif / biotin-A3G peptide binding; higher % means a stronger effect; test concentration not given here; strong numbers were not always called active | actives 0.57% (n = 260,000);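 active = above the screen mean plus three standard deviations and confirmed in dose response; inconclusive = results disagree or hit not tested in dose response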;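 note: Vif residues 1-94 fused to GST binding biotinylated APOBEC3G peptide 110-148; 0% = full assay without inhibitor and 100% = GST in place of GST-Vif; retest series ran down from 100 µM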
T cruzi inh – T. cruzi replication inhibition; T. cruzi beta-gal in NIH3T3, luminescence, 90 h; inhibition, % (no concentration beside the values); actives 1.4% (n = 300,000);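 active = mean inhibition across valid replicates above about 55%, limit read from the data; inconclusive = mean below that limit but half or more replicates reach it; inactive = mean below it, under half of replicates reach it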;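 note: signal also drops with host cell toxicity which is not excluded here; 0% = plate median of DMSO wells and 100% = zero luminescence signal; higher percent means less beta-gal luminescence so fewer parasites; stock transfer was 50 nL into about 50 µL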
Bfl-1 A1 inh – inhibitors of the anti-apoptotic protein A1, read as caspase activation; MEF A1-2A-BIM cells, Caspase-Glo 3/7 luminescence, 3 h; percent of clofoctol response, vehicle zero; caspase activation, % (test concentration not listed); actives 0.066% (n = 330,000); AID 2462;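 active = over half of replicate activation scores above 10%, or exactly half above 10 with the replicate mean above 10; inconclusive = replicate mean below 10 yet half the replicates above 10; inactive = over half of replicates below 10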;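 note: wells of about 30 µL received 50 nL stock; many hits fall short of the cut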
RanGTP-Imp inh – inhibitors of RanGTP-importin-beta interaction, primary screen, biochemical, FRET, CFP-Ran, YFP-importin-beta, homogeneous | cell-free CFP-Ran/YFP-importin-beta FRET ratio | inhibition, % (concentration not given with the values) | actives 1.1% (n = 300,000);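 active = most replicates above 15%; inconclusive = exactly half above 15%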;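 note: 0% = DMSO wells and 100% = Ran loaded with GDP instead of GTP; wells of about 40 µL received 100 nL stock; the first replicate is given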
rRNA inh HTS – inhibitors of bacterial rRNA selective over humanized ribosomes; E. coli WT GFP vs humanized-ribosome RFP mutants, fluorescence, 24 h; hits give low values; DMSO median 0, no signal -100; GFP signal change (wild-type ribosome), % (no concentration beside the values); actives 1.6% (n = 350,000);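 active = significant combined selectivity score with lowered wild-type GFP, culture density cut under 30%, mutant RFP and density less affected; inactive = any of these conditions unmet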; note: one replicate is shown; some compounds called inactive have numbers as strong as hits
rRNA inh HTS OD600 – further read-out of rRNA inh HTS, marked with its call; OD600 change, %; measured here: OD600 growth;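 optical density of the mix in the first replicate; 0 = DMSO median and -100 = no signal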
rRNA inh HTS RFP – second read-out of rRNA inh HTS, no call of its own (marks repeat the call); RFP signal change, %; measured here: RFP humanized mutant strains;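 first replicate; 0 = DMSO median and -100 = no signal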
Starred values were filed as active, the others as inactive. A portion of the library; the hit share may differ from the screen's.

`N#Cc1cc(C(=O)c2cc(Cl)ccc2O)cn(CC2CCCO2)c1=O` (centres undefined) gave Calb FLC 3, Beta apoptosis -1, Vif A3G inconclusive, T cruzi inh 3, Bfl-1 A1 inh -0.5 and RanGTP-Imp inh -1.0.
Screening Cn1cc(CN2CCCC(C(=O)Nc3cccc(-n4cccn4)c3)C2)cn1 (centres undefined) returned Calb FLC 0, MLL AF4-AF9 inh -0.5, Beta apoptosis -6, T cruzi inh 14, Bfl-1 A1 inh -1.1, RanGTP-Imp inh 2.0, rRNA inh HTS -1, rRNA inh HTS OD600 0 and rRNA inh HTS RFP -1.2.
`COC(=O)c1ccc(C(=O)Nc2cc(Cl)ccc2Cl)cc1NC(=O)c1ccccc1C` gave Calb FLC 12, Beta apoptosis 32, Vif A3G 13%, Bfl-1 A1 inh 1.0 and RanGTP-Imp inh 2.8.
For CC(C)C(NC(=O)c1ccc(C(C)(C)C)cc1)C(=O)N1CCC(C(N)=O)CC1 (centres undefined) the results were MLL AF4-AF9 inh -2.2, Beta apoptosis -5, Vif A3G -8% and Bfl-1 A1 inh inconclusive.
CN1CCC(=NNC(=O)c2cn(-c3ccccc3)nc2-c2ccccc2)CC1 was read as Calb FLC 11, MLL AF4-AF9 inh 0.1, Beta apoptosis -1, Vif A3G 26%, T cruzi inh -10, Bfl-1 A1 inh 0.4, RanGTP-Imp inh -4.9, rRNA inh HTS 3, rRNA inh HTS OD600 3 and rRNA inh HTS RFP 1.1.
Screening CC1C(=O)Nc2ccc(S(=O)(=O)NCCc3ccc(Cl)cc3)cc2NC1=O (centres undefined) returned Calb FLC -9, MLL AF4-AF9 inh 7.0, Beta apoptosis 0, T cruzi inh -8, Bfl-1 A1 inh 1.1, RanGTP-Imp inh -1.3, rRNA inh HTS 2, rRNA inh HTS OD600 0 and rRNA inh HTS RFP 2.3.
Screening Nc1nccnc1C(=O)OCC(=O)Nc1ccc2[nH]c(=O)[nH]c2c1 returned Calb FLC 0, MLL AF4-AF9 inh -15, Beta apoptosis 3, Vif A3G -2%, T cruzi inh 0, Bfl-1 A1 inh -0.1, RanGTP-Imp inh 3.0, rRNA inh HTS 2, rRNA inh HTS OD600 -4 and rRNA inh HTS RFP 0.7.
O=C(O)c1cccc([N+](=O)[O-])c1C(=O)Nc1cccc2ccccc12 was read as Calb FLC 11, MLL AF4-AF9 inh -3.7, Beta apoptosis 6, T cruzi inh 6, Bfl-1 A1 inh -0.2, RanGTP-Imp inh 5.6, rRNA inh HTS 0, rRNA inh HTS OD600 12 and rRNA inh HTS RFP 6.8.
For O=C(CCCOc1ccccc1)Nc1ncccn1 the results were Calb FLC -10, T cruzi inh -6, Bfl-1 A1 inh 0.1 and RanGTP-Imp inh 1.0.
For COc1ccc(Br)cc1C(C[N+](=O)[O-])c1c(N)n(C)c(=O)n(C)c1=O (centres undefined) the results were Calb FLC 7, MLL AF4-AF9 inh -1.3, Beta apoptosis 44, Vif A3G 19%, T cruzi inh 44, Bfl-1 A1 inh 0.5 and RanGTP-Imp inh -0.1.
For Cc1ccc(NC(=O)CCCC2CCCCC2)c(O)c1 the results were Calb FLC -39, MLL AF4-AF9 inh -3.9, Beta apoptosis -13, Vif A3G 5%, T cruzi inh -9, Bfl-1 A1 inh -0.6, RanGTP-Imp inh -2.5, rRNA inh HTS 1, rRNA inh HTS OD600 -11 and rRNA inh HTS RFP -0.9.
`Cc1ccc(NC2=NCC(=O)N2C2CCCC2)cc1` gave Calb FLC -15, MLL AF4-AF9 inh -0.1, Beta apoptosis 3, Vif A3G 21%, T cruzi inh -8, Bfl-1 A1 inh 0.7, RanGTP-Imp inh 0.0, rRNA inh HTS 11, rRNA inh HTS OD600 5 and rRNA inh HTS RFP 0.4.
`O=C(CCCc1cccs1)N1CCN(S(=O)(=O)c2ccccc2Br)CC1` gave Calb FLC 17, Beta apoptosis 2, Vif A3G -2%, T cruzi inh 14, Bfl-1 A1 inh 0.4 and RanGTP-Imp inh 6.3.
`Cc1c(Cl)cccc1NC(=S)N(Cc1cccs1)C1CCCC1` gave Calb FLC -1, MLL AF4-AF9 inh 1.6, Beta apoptosis -5, T cruzi inh -15, Bfl-1 A1 inh 0.6, RanGTP-Imp inh -0.3, rRNA inh HTS -22*, rRNA inh HTS OD600 -9.2* and rRNA inh HTS RFP -2.9*.
Screening CCCS(=O)(=O)N1CCCC(C(=O)NCCCN2CCCC2=O)C1 (centres undefined) returned Calb FLC 5, Beta apoptosis 2, Vif A3G 1%, T cruzi inh -2, Bfl-1 A1 inh -0.3, RanGTP-Imp inh -0.2, rRNA inh HTS 7, rRNA inh HTS OD600 9 and rRNA inh HTS RFP -2.8.
Screening Cc1ccc(OCCSc2nc3ccccc3n2CCC(=O)O)cc1 returned Calb FLC 36, MLL AF4-AF9 inh 1.6, Beta apoptosis 0, T cruzi inh -7, Bfl-1 A1 inh 0.3, RanGTP-Imp inh -1.4, rRNA inh HTS -1, rRNA inh HTS OD600 7 and rRNA inh HTS RFP -3.6.
Screening COc1cccc(C2c3[nH]c4ccccc4c3CCN2C(=O)c2ccccc2F)c1OC (centres undefined) returned Calb FLC 11, MLL AF4-AF9 inh 3.2, T cruzi inh 22, Bfl-1 A1 inh 1.1, RanGTP-Imp inh 3.3, rRNA inh HTS 6, rRNA inh HTS OD600 2 and rRNA inh HTS RFP -1.3.
`CCN1CCN(CCC(=O)Nc2ccc(F)c(F)c2)CC1` gave Calb FLC -9, MLL AF4-AF9 inh -0.5, Beta apoptosis -2, T cruzi inh 16, Bfl-1 A1 inh 0.3, RanGTP-Imp inh 0.1, rRNA inh HTS 1, rRNA inh HTS OD600 7 and rRNA inh HTS RFP -0.8.
For Cc1c(NC(=O)COC(=O)CCC(=O)c2ccc(Cl)cc2)c(=O)n(-c2ccccc2)n1C the results were Calb FLC -3, MLL AF4-AF9 inh -0.5, Beta apoptosis -11, Vif A3G 6%, T cruzi inh -8, Bfl-1 A1 inh -0.8, RanGTP-Imp inh 8.2, rRNA inh HTS 4, rRNA inh HTS OD600 4 and rRNA inh HTS RFP 3.5.
`Nc1ccc(NC(=O)c2cccs2)c(Cl)c1` gave Calb FLC -18, MLL AF4-AF9 inh -26, Beta apoptosis -2, Vif A3G 0%, T cruzi inh 13, Bfl-1 A1 inh -0.7, RanGTP-Imp inh -0.7, rRNA inh HTS -2, rRNA inh HTS OD600 6 and rRNA inh HTS RFP 2.3.
CC(C)CCOCc1nc2sc3c(c2c(=O)[nH]1)CCC(C)C3 (centres undefined) was read as Calb FLC 17, MLL AF4-AF9 inh -42, Beta apoptosis -2, Vif A3G -3%, T cruzi inh 27, Bfl-1 A1 inh -1.0, RanGTP-Imp inh 4.2, rRNA inh HTS 1, rRNA inh HTS OD600 0 and rRNA inh HTS RFP -2.9.
O=c1[nH]cnc2scc(-c3ccsc3)c12 was read as Calb FLC -7, Beta apoptosis -7, Vif A3G -12%, T cruzi inh 4, Bfl-1 A1 inh -0.2 and RanGTP-Imp inh 2.7.
Cc1occc1-c1nnc(SCC(=O)N(C)c2ccccc2)n1C was read as Calb FLC -7, MLL AF4-AF9 inh -0.6, Beta apoptosis -5, Vif A3G -11%, T cruzi inh -10, Bfl-1 A1 inh -0.3, RanGTP-Imp inh 26*, rRNA inh HTS 2, rRNA inh HTS OD600 10 and rRNA inh HTS RFP -0.7.
COc1ccccc1CNC(=O)c1nn(C)c2c1CS(=O)(=O)c1ccccc1-2 was read as Calb FLC -13, MLL AF4-AF9 inh 1.6, T cruzi inh 2, Bfl-1 A1 inh -0.6, RanGTP-Imp inh -1.8, rRNA inh HTS -4, rRNA inh HTS OD600 -18 and rRNA inh HTS RFP 0.0.
`CC1CCCC1/C(=N/O)c1ccccc1` (centres undefined) gave Calb FLC -1, MLL AF4-AF9 inh -0.4, Vif A3G -16%, T cruzi inh -3, Bfl-1 A1 inh 0.1, RanGTP-Imp inh 3.8, rRNA inh HTS -2, rRNA inh HTS OD600 -5 and rRNA inh HTS RFP 2.2.
`O=C(/C=C/c1ccccc1)N1CCC(c2ccccc2)C1` (centres undefined) gave Calb FLC 30, MLL AF4-AF9 inh 6.1, Beta apoptosis -8, T cruzi inh 10, Bfl-1 A1 inh -0.8, RanGTP-Imp inh 0.1, rRNA inh HTS -31, rRNA inh HTS OD600 -45 and rRNA inh HTS RFP -1.7.
O=C(O)C1C2CCC(C2)C1C(=O)NCc1ccccn1 (centres undefined) was read as Calb FLC 7, Beta apoptosis 4, Vif A3G 4%, T cruzi inh -15, Bfl-1 A1 inh -0.7 and RanGTP-Imp inh 2.8.
For COc1cccc(CC(=O)OCC(=O)N2CCN(c3ccc(F)cc3)CC2)c1 the results were Calb FLC -20, MLL AF4-AF9 inh -1.4, Beta apoptosis -2, T cruzi inh 18, Bfl-1 A1 inh 0.2, RanGTP-Imp inh 5.7, rRNA inh HTS -2, rRNA inh HTS OD600 -3 and rRNA inh HTS RFP 1.5.
For O=C(Nc1ccc(Br)cc1)N1CCc2ccccc2C1 the results were Calb FLC -4, MLL AF4-AF9 inh -3.9, Beta apoptosis 2, Vif A3G 2%, T cruzi inh 5, Bfl-1 A1 inh -0.7, RanGTP-Imp inh -0.1, rRNA inh HTS -39*, rRNA inh HTS OD600 -31* and rRNA inh HTS RFP -9.1*.
Screening CCOC(=O)/C(N=Nc1c(Br)cc(Br)cc1Br)=C(\C)O returned Calb FLC 15, Beta apoptosis 7, Vif A3G -3%, T cruzi inh -2, Bfl-1 A1 inh -0.9 and RanGTP-Imp inh 1.9.

Arranged by heavy-atom count (high to low): part of the list above.
Cc1occc1-c1nnc(SCC(=O)N(C)c2ccccc2)n1C was read as Calb FLC -7, MLL AF4-AF9 inh -0.6, Beta apoptosis -5, Vif A3G -11%, T cruzi inh -10, Bfl-1 A1 inh -0.3, RanGTP-Imp inh 26*, rRNA inh HTS 2, rRNA inh HTS OD600 10 and rRNA inh HTS RFP -0.7.
Screening CCOC(=O)/C(N=Nc1c(Br)cc(Br)cc1Br)=C(\C)O returned Calb FLC 15, Beta apoptosis 7, Vif A3G -3%, T cruzi inh -2, Bfl-1 A1 inh -0.9 and RanGTP-Imp inh 1.9.
O=c1[nH]cnc2scc(-c3ccsc3)c12 was read as Calb FLC -7, Beta apoptosis -7, Vif A3G -12%, T cruzi inh 4, Bfl-1 A1 inh -0.2 and RanGTP-Imp inh 2.7.

High-throughput results as filed in PubChem.
